# FGF22 binding: FGF22 (human) thermal shift binding; Q9HCT0; recombinant FGF22 thermal shift, SYPRO orange fluorescence; percent of sucrose octasulfate shift, DMSO zero; calls only at 9.99 µM; 1.5% of 340,000 active; AID 651658;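 active means melting point raised past a set limit in the mean and every replicate; inconclusive means no clear call; three in four hits are not shown here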
# Target sequence (Q9HCT0 whole entry, looked up): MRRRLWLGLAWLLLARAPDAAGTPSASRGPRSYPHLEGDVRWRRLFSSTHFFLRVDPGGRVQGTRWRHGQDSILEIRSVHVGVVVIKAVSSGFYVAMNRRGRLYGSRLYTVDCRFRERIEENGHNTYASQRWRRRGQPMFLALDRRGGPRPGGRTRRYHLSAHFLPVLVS
# E coli growth: blocks Escherichia coli growth; 0.21% of 330,000 active; OD600, 23 h; hits give low values; OD600 absorbance (concentration not given with the values); AID 1053175;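 active means OD600 absorbance below the run mean of sample wells minus 3.6 SD, in any replicate, cut at about 0.56 in these data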;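 further: stock transfer was 300 nL into about 60 µL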
# Vif A3G: inhibitors of Vif binding to APOBEC3G peptide, primary screen, biochemical, TR-FRET, GST-Vif 1-94, biotin-A3G peptide, dose response retest (AID 1117319); TR-FRET GST-Vif / biotin-A3G peptide binding; higher % means a stronger effect; test concentration not given here; strong numbers were not always called active; one-dose inhibition, %; IC50 in µM for titrated hits; 0.57% of 260,000 active;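 active means above the screen mean plus three standard deviations and confirmed in dose response; inconclusive means results disagree or hit not tested in dose response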;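 further: Vif residues 1-94 fused to GST binding biotinylated APOBEC3G peptide 110-148; 0% = full assay without inhibitor and 100% = GST in place of GST-Vif; retest series ran down from 100 µM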
# Ecoli rRNA inh: selective bacterial rRNA inhibition in E. coli | AID 720706 | E. coli WT GFP vs humanized-ribosome RFP mutants, fluorescence, 24 h; hits give low values; DMSO median 0, no signal -100 | 1.6% of 350,000 active | GFP signal change (wild-type ribosome), % (test concentration not listed);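 active means significant combined selectivity score with lowered wild-type GFP, culture density cut under 30%, mutant RFP and density less affected; inactive means any of these conditions unmet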; further: one replicate is shown; some compounds called inactive have numbers as strong as hits
# HNF4A DNA FP: change in binding of human HNF4 alpha to DNA | P41235 | HNF4a-FITC DNA binding, fluorescence polarization, 1 h | activity change, % at 10 µM | 0.3% of 360,000 active | AID 1224865; in the data active means activity change above about 30%, passing the limit was not always enough;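 further: controls were the assay level and a saturating level of protein; the project sought stronger binding though the title names inhibitors; some compounds called inactive have numbers as strong as hits; positive values seem to mean higher polarization but the record does not say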
# AF4-AF9 inh: blocks AF4 peptide binding to human AF9. AID 651704. inhibition, % at 10 µM. AlphaScreen, biotin-AF4 peptide binding to FLAG-AF9. 0.47% of 350,000 active;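 active means every replicate reaching a set inhibition limit, whatever the replicate mean, cut at about 25% in these data; inconclusive means mean inhibition reaches that limit but some replicates miss it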;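 further: 0% = plate neutral control median and 100% = total signal loss; the record names both 10 and 1 µM as test concentration; the first replicate is given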
# Target sequence (P42568 whole entry, looked up): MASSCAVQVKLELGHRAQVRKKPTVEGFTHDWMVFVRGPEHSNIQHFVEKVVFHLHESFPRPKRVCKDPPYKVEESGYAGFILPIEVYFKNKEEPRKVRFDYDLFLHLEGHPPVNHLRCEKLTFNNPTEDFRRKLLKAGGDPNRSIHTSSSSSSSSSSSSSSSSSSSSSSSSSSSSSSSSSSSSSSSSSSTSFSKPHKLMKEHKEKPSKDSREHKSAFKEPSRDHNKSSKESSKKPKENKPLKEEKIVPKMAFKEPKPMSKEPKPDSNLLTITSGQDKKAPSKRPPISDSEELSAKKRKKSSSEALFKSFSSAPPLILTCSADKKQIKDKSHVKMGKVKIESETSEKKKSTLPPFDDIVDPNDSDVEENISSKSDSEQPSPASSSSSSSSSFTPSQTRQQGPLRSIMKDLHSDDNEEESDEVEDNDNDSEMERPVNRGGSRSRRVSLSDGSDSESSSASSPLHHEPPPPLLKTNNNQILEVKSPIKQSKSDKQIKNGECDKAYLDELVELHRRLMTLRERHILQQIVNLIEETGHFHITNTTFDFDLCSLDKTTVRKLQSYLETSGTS
# ALR inh: inhibitors of human sulfhydryl oxidase ALR; P55789; purified ALR, DTT oxidation, H2O2 HRP-luminol luminescence; inhibition, % (test concentration not listed); 3.8% of 290,000 active;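 active means mean and each replicate at 75% or more; inconclusive means only one of the two met; inactive means neither met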;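 further: stock transfer was 7.5 nL into about 7.5 µL; 0% = neutral wells and 100% = wells with inactivated enzyme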
# Target sequence (P55789 whole entry, looked up): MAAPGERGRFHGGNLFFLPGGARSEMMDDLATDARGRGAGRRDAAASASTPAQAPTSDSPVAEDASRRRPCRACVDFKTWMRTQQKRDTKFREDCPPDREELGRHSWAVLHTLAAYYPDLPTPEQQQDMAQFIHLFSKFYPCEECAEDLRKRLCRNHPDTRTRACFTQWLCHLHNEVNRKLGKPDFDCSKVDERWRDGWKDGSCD
# Ecoli rRNA inh OD600: second read-out of Ecoli rRNA inh, no call of its own (marks repeat the call); OD600 change, %; measured here: OD600 growth;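 optical density of the mix in the first replicate; 0 = DMSO median and -100 = no signal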
# Ecoli rRNA inh RFP: recorded beside Ecoli rRNA inh, whose call it bears; RFP signal change, %; measured here: RFP humanized mutant strains;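 first replicate; 0 = DMSO median and -100 = no signal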
# Starred values were filed as active, the others as inactive; i = inactive; ? = inconclusive; . = no result given; & = joins results of further samples; ! = not confirmed by another sample.
SMILES,FGF22 binding,E coli growth,Vif A3G,Ecoli rRNA inh,Ecoli rRNA inh OD600,Ecoli rRNA inh RFP,HNF4A DNA FP,AF4-AF9 inh,ALR inh
CNC(=O)c1ccc(NC(=O)c2cc(S(=O)(=O)N3CCOCC3)ccc2N2CCCC2)cc1,i,0.65,-1%,8,10,1.7,-1.4,-0.2,0
O=C(NC1CC1)c1c(O)c2ccccc2[nH]c1=O,i,0.68,-6%,0,0,0.6,2.1,-4.5,-11
O=C(C1CC1)N1[C@H](CO)[C@H]2c3ccccc3N(S(=O)(=O)c3ccc(F)cc3)C[C@H]21,i,.,.,0,2,-1.6,.,1.3,.
CC(=O)Nc1ccc(N(CC(O)Cn2c3ccccc3c3ccccc32)S(=O)(=O)c2ccc(C)cc2)cc1 (configuration not stated),i,0.68,8%,1,-10,-0.3,5.9,6.9,-3
COC(=O)C(Sc1nc(C)cc(C)c1C#N)c1ccccc1 (configuration not stated),.,0.67,-4%,.,.,.,0.3,.,-5
CC(=O)C1=CCC(c2ccccc2)N(S(=O)(=O)c2ccc(Cl)cc2)C1 (configuration not stated),.,.,.,-6,-24,-6.9,-4.7,-1.3,.
CN1CC(c2ccc(Cl)c(Cl)c2)[C@@]2(COc3ccccc3C2=O)[C@@]12C(=O)Nc1ccccc12 (some centres not stated),.,.,-8%,.,.,.,0.5,.,18
CCOc1ccc(NS(=O)(=O)c2ccc3c(c2)oc(=O)n3C)cc1,.,0.7,-1%,.,.,.,0.0,.,-23
COC(=O)C1=C(NC(=O)c2ccccc2C)CCS1,i,0.65,-3%,-10,-11,-3.9,-3.1,6.2,9
COc1ccccc1OCCC(=O)OCC(=O)NC(C)c1ccccc1 (configuration not stated),i,0.69,.,9,0,-1.6,2.9,2.4,-2
Cc1cccc(C)c1NC(=O)CN(C)CC(=O)N1CC(=O)Nc2ccccc21,i,0.69,-6%,1,3,-2.6,3.8,-2.7,7
O=C(O)c1n[nH]c2c1CCCC2,.,0.71,32%,.,.,.,-4.4,.,0
O=C(Cc1ccccc1)Nc1cccc(C(=O)N/N=C/c2ccco2)c1,.,.,-6%,.,.,.,1.0,.,-7
C[C@H](CO)N1C[C@H](C)[C@H](CN(C)S(=O)(=O)c2ccc(Cl)cc2)Oc2ccc(NC(=O)Cn3cnnn3)cc2CC1=O,i,.,.,1,3,-0.3,.,0.8,.
CCCCn1c(N)c(N(CCOC)C(=O)c2cc(-c3ccc(OC)c(OC)c3)nc3ccccc23)c(=O)[nH]c1=O,i,0.67,2%,1,2,0.7,-6.0,-3.4,-13
CC(=O)N[C@H]1CC[C@@H](CCNC(=O)C2CC2)O[C@H]1CO,i,.,.,5,13,-1.4,.,-3.8,.
O=C(C[C@H]1C[C@@H]2c3cc(NC(=O)NC4CCCCC4)ccc3O[C@@H]2[C@H](CO)O1)NCc1ccccc1,i,.,.,-2,1,-2.8,.,1.4,.
COCCNC(=O)C[C@@H]1C[C@@H]2c3cc(NC(=O)CN(C)C)ccc3O[C@@H]2[C@H](CO)O1,i,.,.,2,11,0.4,.,-0.5,.
COc1ccccc1N(C)S(=O)(=O)c1ccc(C(=O)NC(C)(C)C)cc1,.,0.64,68%,.,.,.,-12,.,-17
C=CC[C@H](CC(=O)N(CCO)Cc1ccccc1)C(=O)NC[C@H](OC(=O)[C@@H](CC=C)CC(=O)OC(C)(C)C)c1ccccc1,i,.,.,8,2,6.6,-3.0,1.7,1
CN(C)S(=O)(=O)c1ccc(Cl)c(C(=O)OCC(=O)NC(=O)c2cccn2C)c1,i,0.7,-5%,-21*,-13*,1.8*,3.2,7.6,.
CCOc1ccc(NC(=O)Cc2ccccc2)c([N+](=O)[O-])c1,.,0.66,11%,.,.,.,2.6,.,3
CCn1c(SCc2cccc(F)c2)nc2c(c1=O)SCC2,.,0.7,-4%,-35*,-28*,-7.2*,-5.4,8.6,97*
Cc1ccc(S(=O)(=O)N2CCCC2CNC(=O)C(=O)Nc2ccccc2)cc1 (configuration not stated),i,0.65,-6%,7,8,1.2,0.7,4.5,-1
O=C1[C@@H]2CSCCS(=O)(=O)N2C(=O)N1C1CCCCC1,i,.,.,2,0,3.4,.,-0.7,.
COC(=O)C1=C(C)N(C(C)c2ccccc2)C(=O)/C1=C\c1ccco1 (configuration not stated),i,0.7,?,18,14,4.2,-0.8,19,-6
CC1(C(=O)Nc2ccc3c(c2)OCO3)CCN1C(=O)C1(c2ccc(Cl)cc2)CC1 (configuration not stated),i,.,.,.,.,.,2.5,5.3,.
COc1ccc(C#Cc2ccc3c(c2)O[C@H](CN(C)C(C)=O)[C@H](C)CN([C@@H](C)CO)S3(=O)=O)cc1,i,.,.,-9&-6,-7&-14,-7.5&2.8,2.8,4.3&6.9,.
CCCCn1c(N)c(N(CC(C)C)C(=O)CSc2ccc([N+](=O)[O-])cc2)c(=O)[nH]c1=O,.,0.67,2%,3,3,-1.5,-2.1,0.7,-4
Cc1ccccc1Nc1c(-c2cccnc2)nc2ccc(Br)cn12,i,0.69,-10%,-25*,-13*,-3.6*,5.0,0.8,66
CO[C@@H]1CN(C)C(=O)c2ccc(NC(=O)C3CCCCC3)cc2OC[C@H](C)N(Cc2nccs2)C[C@@H]1C,i,.,.,-5,-6,3.6,.,1.9,.
CCC(=O)N(C)C[C@@H]1Oc2cc(/C=C/c3ccccc3)ccc2S(=O)(=O)N([C@H](C)CO)C[C@H]1C,i,.,.,-38,-67,2.5,.,15,.
CC(=O)N(c1ccc(N(C(C)=O)S(=O)(=O)c2ccccc2)cc1)S(=O)(=O)c1ccccc1,i,0.68,.,5,0,0.7,-2.3,1.1,-7
COC(=O)N/N=C\c1ccccc1OC/C=C/c1ccccc1,i,.,.,-10,-15,3.2,-6.9,-0.1,-11
CCOC(=O)c1cc(C)sc1/N=C/C1C(=O)CCCC1=O,i,.,?,7,2,-3.6,-1.0,-41,22
O=S1(=O)C[C@H](N2CCCC2)[C@@H](COCc2ccccc2)N1,i,.,.,0,8,3.6,-0.1,-1.4,.
O=C(NNC(=O)c1ccc(-c2ccccc2)cc1)Nc1ccc(F)cc1F,i,0.69,.,6,10,-0.4,0.7,-8.9,3
Cc1noc(C)c1S(=O)(=O)Nc1ccc2c(c1)C(=O)N([C@@H](C)CO)C[C@@H](C)[C@@H](CN(C)CC1CC1)OCCCC[C@@H](C)O2,i,.,.,4,13,-1.6,.,4.7,.
COc1cccc(C(=O)/C=C2\NCCc3cc(OC)c(OC)cc32)c1,i,0.68,.,-5,-23,6.6,6.3,11,45
C[C@H](CO)N1C[C@H](C)[C@H](CN(C)Cc2ccc(Cl)c(Cl)c2)Oc2c(NC(=O)NC3CCCCC3)cccc2C1=O,i,.,.,-7,-11,-1.3,.,2.6,.
O=C1C=CC(=O)N1N(c1ccccc1)c1ccccc1,i,0.67,3%,16,11,-6.7,-2.3,5.6,.
O=C(N/N=C/C1CC2CCC1C2)c1c[nH]c2ccccc12 (configuration not stated),i,.,19%,-8,-4,-2.7,-1.6,1.4,8
CC(=O)C1=C(c2ccc(Br)cc2)C(=O)c2ccccc2C1=O,.,0.61,5%,.,.,.,1.0,.,2
O=C1Cc2cc(NS(=O)(=O)c3ccc(Cl)cc3)cc3c2N1CCC3,i,0.68,-11%,-10,-11,9.5,-1.1,3.1,-2
COc1ccc(S(=O)(=O)N[C@H]2CC[C@H](CC(=O)NCc3ccccc3F)O[C@@H]2CO)cc1,i,.,.,2,-12,0.6,.,0.1,.
Cc1cccc(CCNc2nc3ccccc3n3nnnc23)c1,.,0.73,1%,.,.,.,9.3,.,.
COc1cc(C2c3c(n[nH]c3C)C(=O)N2c2ccc(Br)cc2)ccc1O (configuration not stated),.,0.73,-2%,.,.,.,-1.0,.,31
COc1ccc(CN2CC3(CN(Cc4ccccc4OC)C3)c3c([nH]c4cc(OC)ccc34)[C@H]2CO)cc1,i,.,.,2,-8,9.3,.,14,.
Nc1cccc2c1C(=O)N(C(=O)/C=C/c1cccc(F)c1)C2=O,i,0.72,25%,2,10,7.5,-8.2,-8.7,98*
CCOc1ccc(NC(=O)NC2CCOC(C)(C)C2)cc1 (configuration not stated),.,0.65,22%,.,.,.,17,.,-11
O=C(COC(=O)c1ccc(Cl)c(S(=O)(=O)N2CCOCC2)c1)Nc1ccc2[nH]c(=O)[nH]c2c1,i,0.7,-5%,-7,5,1.1,3.9,3.1,1
CCC(=O)Nc1cccc(-c2cn3cccc(C)c3n2)c1,i,0.6,-13%,-3,-8,-2.6,-1.1,-1.3,.
COCC(=O)N1[C@@H](CO)[C@@H]2c3ccccc3N(C(=O)c3cccc(OC)c3)C[C@@H]21,i,.,.,4,18,-0.1,.,-16,.
COc1cccc(-c2noc(C3CCCN(C(=O)c4ccc(F)cc4F)C3)n2)c1 (configuration not stated),i,0.68,-5%,-25,-45,-12,5.7,-2.8,-1
COc1ccc(S(=O)(=O)N2CCN(Cc3ccccc3)CC2)cc1OC,i,0.65,-3%,4,-10,-4.0,0.2,-0.1,-4
COc1ccc(S(=O)(=O)n2nc(-c3ccc(Cl)cc3)cc2N)cc1OC,i,.,3%,1,10,-3.7,0.5,5.2,4
CCOC(=O)c1cn(CC)c2ccc(S(=O)(=O)N3CCC(C)CC3)cc2c1=O,.,0.64,?,.,.,.,1.4,.,-12
O=C(O)c1cccc(N2C(=O)C3CC=C(Cl)CC3C2=O)c1 (configuration not stated),i,0.8,14%,10,1,0.1,-9.4,7.3,-16
COc1ccccc1NC(=O)CN1C(=O)CCS(=O)(=O)c2ccccc21,.,0.71,20%,.,.,.,-0.8,.,-17
O=C(COc1ccc([N+](=O)[O-])cc1)N1CCN(c2nnc(-c3ccccc3)c3ccccc23)CC1,i,0.67,15%,5,7,0.2,-0.3,-5.5,-22

# Following part:
SMILES,FGF22 binding,E coli growth,Vif A3G,Ecoli rRNA inh,Ecoli rRNA inh OD600,Ecoli rRNA inh RFP,HNF4A DNA FP,AF4-AF9 inh,ALR inh
CCOC(=O)c1nn(-c2ccc(OCC)cc2)c(C)c1C(C)=O,i,0.67,-3%,0,-7,-4.0,-2.3,-4.2,-1
CCCNC(=O)C[C@H]1C[C@@H]2c3cc(NC(=O)Nc4ccc(F)cc4)ccc3O[C@@H]2[C@H](CO)O1,i,.,.,4,-4,-1.0,.,-0.5,.
O=C(/C=C/c1c(F)cccc1Cl)Nc1ncccn1,i,0.67,0%,-5,12,4.8,-0.1,1.7,9
CCSc1nc(NCCN(C)C)c2c3c(sc2n1)COC(C)(CC)C3 (configuration not stated),i,0.65,-3%,-10,-12,2.6,2.5,6.4,-2
O=C(N/N=C/c1ccc(OC2CSC2)cc1)c1ccccc1,.,.,0%,.,.,.,-1.4,.,-25
CC/C(=C(\c1ccccc1)c1ccc(OCCN(C)C)cc1)c1ccccc1,i,.,.,.,.,.,3.6&-5.5,30*!,-14

# 2 compounds drawn at random from those above:
SMILES,FGF22 binding,E coli growth,Vif A3G,Ecoli rRNA inh,Ecoli rRNA inh OD600,Ecoli rRNA inh RFP,HNF4A DNA FP,AF4-AF9 inh,ALR inh
O=C(/C=C/c1c(F)cccc1Cl)Nc1ncccn1,i,0.67,0%,-5,12,4.8,-0.1,1.7,9
CCCNC(=O)C[C@H]1C[C@@H]2c3cc(NC(=O)Nc4ccc(F)cc4)ccc3O[C@@H]2[C@H](CO)O1,i,.,.,4,-4,-1.0,.,-0.5,.

# Assay outcomes deposited in PubChem BioAssay by several laboratories.

# Only part of the results is shown; count on the stated rates, not on these rows.
